TDP1 block: blocks human tyrosyl-DNA phosphodiesterase 1. Q9NUW8. recombinant TDP1, AlphaScreen DNA substrate cleavage. Potency, µM (doses to about 130 µM), for the others: at the highest dose activity change, negative = inhibition, actives largely listed as inhibitors. hit rate 0.28% among 350,000. AID 485290; note: nearly all actives have a fitted effect of over 40% in size
Target sequence (Q9NUW8 whole entry, looked up): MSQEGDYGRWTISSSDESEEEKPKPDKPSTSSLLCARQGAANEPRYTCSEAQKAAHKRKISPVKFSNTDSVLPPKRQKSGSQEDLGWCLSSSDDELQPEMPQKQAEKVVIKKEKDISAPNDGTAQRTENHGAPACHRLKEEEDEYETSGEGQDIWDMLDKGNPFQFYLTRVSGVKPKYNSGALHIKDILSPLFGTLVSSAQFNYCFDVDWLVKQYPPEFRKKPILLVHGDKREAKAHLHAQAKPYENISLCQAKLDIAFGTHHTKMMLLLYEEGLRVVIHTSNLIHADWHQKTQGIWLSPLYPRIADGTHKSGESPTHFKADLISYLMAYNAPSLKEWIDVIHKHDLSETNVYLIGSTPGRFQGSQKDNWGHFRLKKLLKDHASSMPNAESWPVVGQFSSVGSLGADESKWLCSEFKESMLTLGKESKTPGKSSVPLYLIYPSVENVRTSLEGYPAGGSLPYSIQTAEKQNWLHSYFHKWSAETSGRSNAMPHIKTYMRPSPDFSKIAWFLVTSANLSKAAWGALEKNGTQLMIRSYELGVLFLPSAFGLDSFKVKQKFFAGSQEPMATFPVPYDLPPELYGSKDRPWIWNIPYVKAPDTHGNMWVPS
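AlphaScreen read-out: signal falls as enzyme removes the 3' tyrosine-FITC from a 5'-biotinylated DNA oligo (15 nM, 5 min, RT). Enzyme was E. coli-made recombinant Tdp1 at 1 nM, exposed to compound for 15 min beforehand; beads 10 ug/ml, 10 min.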
N370S GC: inhibits or activates N370S mutant glucocerebrosidase; N370S GC spleen homogenate, 4MU-glucoside fluorescence; P04062; Potency, µM (doses to about 59.4 µM), for inactives: at the top dose activity change, negative = inhibition, usual class: inhibitors; AID 2101; hit rate 0.092% among 330,000;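 note: 0% = full enzyme activity and -100% = no enzyme basal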
Active calls of the source: *; ? = inconclusive; · = not tested or not shown; [ ] = another dose, or the depositor's remark. Calls come from the whole dose curve; as a rule, active = well fitted curve in the direction sought with a large enough effect; inconclusive = small, poorly fitted or top-dose-only effect, or another doubt; inactive = no such curve, though single readings can be large; an effect the other way counts as inactive or inconclusive. Unless noted, % is set by controls: 0 for no effect and ±100 for the full control effect; potency is the fitted concentration of half-maximal effect.

SMILES | TDP1 block | N370S GC
COC(/C(=N/O)c1ccc(Cl)cc1)c1ccccc1 (stereo unspecified) | · | -6%
CCOC(=O)c1[nH]ncc1[C@@H]1C[C@H]2CN(Cc3cccc(Cl)c3)C(=O)[C@]23CCCN13 | · | -2%
CCCc1cc(Nc2ccccc2OCC)n2ncnc2n1 | 0% | 4%
O=c1c2[nH]c3ccc(F)cc3c2ncn1CCC1=CCCCC1 | 6% | 6%
Cn1c(=O)c(C(=O)NCc2ccc(F)cc2)c(O)c2ccccc21 | · | 1%
Nc1nc2ccccc2n1CCOc1ccc(F)cc1 | · | ?
CCOC(=O)N1CCN(C(=O)COC(=O)Cc2ccc(Cl)cc2)CC1 | 0% | 2%
Cc1c(N(C)C(=O)COc2ccc3ccccc3c2)c(=O)n(-c2ccccc2)n1C | 0% | -3%
CC(C)(C)c1nn(-c2ccccc2)c2[nH]c(=O)c(C=O)cc12 | 3% | 0%
CC(Oc1ccc(Cl)cc1Cl)C(=O)NNC(=O)c1cccnc1 (stereo unspecified) | 4% | -4%
COc1ccc(C2CC(c3ccc4ccccc4c3)=NN2C(=O)CN2CCC(C(N)=O)CC2)cc1 (stereo unspecified) | 9% | ?
O=C(Nc1cccc(Oc2ccc(C(=O)O)c(C(=O)O)c2)c1)c1ccc(-c2ccccc2)cc1 | 45µM* | 2%
COc1ccc(NC(=S)NC(=O)c2cncc(Br)c2)c(OC)c1 | · | 0%
CC(=O)N(CCC1(C(C)C)CCOC(C)(C)C1)Cc1ccco1 (stereo unspecified) | 6% | 8%
O=C(c1cccnc1Nc1ccc2c(c1)CCC2)N1CCOCC1 | 5% | 3%
CC(C)n1c(CN(C)c2ccccc2)nc2ccccc21 | 4% | 5%
COc1ccc(C(C(=O)NC2CCCCC2)N(C(=O)c2sc(C)nc2C)c2ccccc2)cc1 (stereo unspecified) | 3% | 22%
O=C(c1cc2cc(Cl)ccc2[nH]1)N1CCN(c2ccccn2)CC1 | · | -6%
CC(NC(=O)C1CCCC1)c1ccc(Br)cc1 (stereo unspecified) | · | 0%
Cc1csc2nc(CSc3nncn3-c3ccccc3)c(Br)n12 | 1% | 1%
O=C(Cc1ccc(NC2=NC3CS(=O)(=O)CC3S2)cc1)NCc1ccc(Cl)cc1 (stereo unspecified) | · | -4%
C=C(C)c1cccc(C(C)(C)NC(=O)N2CCOCC2)c1 | 5% | 0%
COCCSc1nnc(NC(=O)C2CC(=O)N(CCc3ccc(F)cc3)C2)s1 (stereo unspecified) | · | -3%
CCOc1ccc(C(=O)NCCc2csc(-c3cccc(F)c3)n2)cc1OCC | -3% | ·
O=C(COC(=O)c1cccc(S(=O)(=O)N2CCN(c3ccc(F)cc3)CC2)c1)NCC1CCCO1 (stereo unspecified) | -2% | -5%

Some of these compounds in order of the TDP1 block value, high to low.
SMILES | TDP1 block | N370S GC
CC(=O)N(CCC1(C(C)C)CCOC(C)(C)C1)Cc1ccco1 (stereo unspecified) | 6% | 8%
CC(C)n1c(CN(C)c2ccccc2)nc2ccccc21 | 4% | 5%
COc1ccc(C(C(=O)NC2CCCCC2)N(C(=O)c2sc(C)nc2C)c2ccccc2)cc1 (stereo unspecified) | 3% | 22%
CCCc1cc(Nc2ccccc2OCC)n2ncnc2n1 | 0% | 4%
O=C(COC(=O)c1cccc(S(=O)(=O)N2CCN(c3ccc(F)cc3)CC2)c1)NCC1CCCO1 (stereo unspecified) | -2% | -5%

Remaining list, next part:
SMILES | TDP1 block | N370S GC
O=C1c2ccccc2NC(c2ccc(-c3cccs3)o2)N1O (stereo unspecified) | 3% | ·
COc1cccc(/C=N/NC(=O)C(C)Sc2ccccc2)c1 (stereo unspecified) | 1% | 6%
Cc1ccc(S(=O)(=O)N2CCOCC2)cc1C(=O)OCC(=O)c1ccc(Br)cc1 | -16% | ·
COc1ccc(NC(=O)CN(C)C(=O)c2cccc(S(=O)(=O)Nc3ccccc3Cl)c2)cc1 | · | 1%
Cc1cc(C(F)(F)F)nc(SCCN2CCOCC2)c1C#N | 5% | -1%
NC(=O)C[n+]1cccc(CNC(=O)c2ccc(OC(F)F)cc2)c1 | 7% | 10%
C1CC1Cc1noc(CN2CCN(C3C4CC5CC(C4)CC3C5)CC2)n1 (stereo unspecified) | 5% | 4%
CN(c1ccccc1)c1cc(=O)[nH]c(=O)[nH]1 | -3% | 21%
COc1ccc(Cc2nnc(NC(=O)c3ccccc3Cl)s2)cc1OC | · | -5%
CC1Cc2nc(SCC(=O)c3ccccc3)n(Cc3ccccc3)c(=O)c2S1 (stereo unspecified) | 8% | 17%
Cc1ccc(NS(=O)(=O)c2cc(OCC(N)=O)c(C)cc2Cl)cc1 | 3% | 6%
CC(C)(C)NC(=O)NC(=O)COc1ccccc1C#N | 2% | 3%
O=C(CCS(=O)(=O)c1ccc(Br)cc1)NCc1cccs1 | 22µM* | 9%
CCOC(=O)/C=C/C(=O)Nc1cccc([N+](=O)[O-])c1 | -2% | -9%
COc1cccc(C2CC(C(F)(F)F)n3nc(C(=O)NCc4cccnc4)cc3N2)c1 (stereo unspecified) | 4% | 1%
Cn1c(=O)c2c(nc(SCC(=O)N3CCc4ccccc4C3)n2C)n(C)c1=O | 2% | 2%
Cc1sc2nc(SCC(=O)NCc3ccco3)[nH]c(=O)c2c1C | 6% | 2%
O=C(COC(=O)CCCN1C(=O)c2ccccc2C1=O)Nc1cc(Cl)cc(Cl)c1 | 0% | 4%
CC1CCCN(C(=O)Cn2c(-c3nonc3N)nc3ccccc32)C1 (stereo unspecified) | 3% | 4%
O=C1N=C(N2CCCCC2)S/C1=C\c1ccc(Br)cc1 | · | -15%
Cc1nn(CC(=O)O)c(C)c1N | · | -6%
COc1cccc(/C=N/NC(=O)c2[nH]c(C)c(C(=O)N/N=C/c3cccc(OC)c3O)c2C)c1O | 14% | -18%
COc1ccc([N+](=O)[O-])cc1NC(=O)Nc1cccc(Cl)c1 | 5% | 13%
CC1CCN(CCOc2cccc(Br)c2)CC1 | -3% | -24%
CC(=O)c1cccc(S(=O)(=O)N2CCC(C(=O)NC3CCCC3)CC2)c1 | -7% | -8%

Random excerpt: 6 records from the list.
SMILES | TDP1 block | N370S GC
O=C1N=C(N2CCCCC2)S/C1=C\c1ccc(Br)cc1 | · | -15%
Cn1c(=O)c2c(nc(SCC(=O)N3CCc4ccccc4C3)n2C)n(C)c1=O | 2% | 2%
COc1ccc(Cc2nnc(NC(=O)c3ccccc3Cl)s2)cc1OC | · | -5%
NC(=O)C[n+]1cccc(CNC(=O)c2ccc(OC(F)F)cc2)c1 | 7% | 10%
O=C1c2ccccc2NC(c2ccc(-c3cccs3)o2)N1O (stereo unspecified) | 3% | ·
COc1cccc(C2CC(C(F)(F)F)n3nc(C(=O)NCc4cccnc4)cc3N2)c1 (stereo unspecified) | 4% | 1%

Other structures
SMILES | TDP1 block | N370S GC
O=C(Nc1ccccc1)c1ccc2c(c1)CCN2S(=O)(=O)c1ccccc1 | 0% | ?
CCc1cc(=O)oc2c3c(cc(OCC(=O)NCCN4CCOCC4)c12)OC(C)(C)CC3 | · | 18%
CS(=O)(=O)N(CC(=O)NC1CCCCC1)Cc1ccc(Cl)cc1 | -11% | -3%
Cc1nc(NC(=O)CN2CCOCC2)sc1C(=O)N(C)C | 0% | -12%
CCOc1cc(/C=N/NC(=O)c2nn(C)cc2Br)ccc1OCc1ccccc1 | 3% | -1%
CCOC(=O)c1ccc(N2C(=O)C3ON(c4ccccc4)C(c4ccco4)C3C2=O)cc1 (stereo unspecified) | 5% | -3%
COc1ccccc1NC(=S)NNC(=O)c1ccncc1 | 7% | -12%
O=C(Nc1ccccc1Cl)N1CCCN(c2nc(-c3ccccc3)ns2)CC1 | 3% | 17%
O=C(NCc1ccco1)/C(=C\C=C\c1ccccc1)NC(=O)c1ccccc1Br | 4% | 13%
CCOC(=O)C1CCN(C(=O)c2ccccc2NS(=O)(=O)c2cc(C)ccc2C)CC1 | 1% | -4%
O=C(O)CSCC(=O)NCc1ccc(Cl)cc1 | 0% | 14%
O=C(/C=C/c1ccccc1)OCc1cnc(Cl)s1 | -6% | 3%
CCOc1cc(NC(=O)c2cccs2)c(OCC)cc1NC(=O)CCC(=O)NCC1CCCO1 (stereo unspecified) | 1% | -19%
CCCCOc1ccc(-c2cc3c(=O)n(CC(=O)Nc4ccc(Cl)cc4Cl)ccn3n2)cc1 | -1% | ·
Cc1ccc(-c2cc(C(=O)Nc3cc(C)on3)no2)cc1 | -6% | -1%
CC(=O)Nc1ccc(/C(C)=N/NC(=O)c2ccncc2)cc1 | 4% | 2%
COc1ccccc1CNC(=O)CSc1nn2c(=O)c(C(C)(C)C)nnc2s1 | 8% | 18%
NC(=O)Oc1cccc(OC(N)=O)c1 | 5% | -4%
CCCCn1nc2cc(C(=O)NC3CCc4ccccc43)ccc2c1OCC (stereo unspecified) | 3% | 4%
CCCCCNC(=O)C1CCC(Cn2c(=S)[nH]c3ccccc3c2=O)CC1 (stereo unspecified) | 9% | 10%
Nc1nc(N)c(S(=O)(=O)c2ccccc2)c(Nc2ccccc2)n1 | 7% | ·
CCCCCOC(=O)Nc1nnc(CCCCC)s1 | 3% | 7%
Cc1onc(-c2ccccc2Cl)c1C(=O)OCC(=O)c1c(N)n(C)c(=O)n(C)c1=O | 5% | -6%
Cc1cc(NS(=O)(=O)c2ccc(NC(=O)/C=C/c3c(F)cccc3Cl)cc2)no1 | 6% | -2%
Cc1ccccc1C(=O)Nc1ccnn1C1CCN(Cc2cnn(C(C)C)c2)CC1 | 5% | -1%

Whole records, looked up by structure:
`Cc1ccc(-c2cc(C(=O)Nc3cc(C)on3)no2)cc1` as listed: TDP1 block = -6%; N370S GC = -1%
`NC(=O)C[n+]1cccc(CNC(=O)c2ccc(OC(F)F)cc2)c1` as listed: TDP1 block = 7%; N370S GC = 10%

Other structures follow:
SMILES | TDP1 block | N370S GC
CC1CN(C(=O)CSc2nnc(-c3ccccc3)o2)CC(C)O1 (stereo unspecified) | 1% | 7%
Cc1ccc(S(=O)(=O)Nc2c(C)nc3nc[nH]n3c2=O)c(C)c1 | 2% | -28%
Cc1ccc(C(NC(=O)c2cccc(S(=O)(=O)N3CCN(C)CC3)c2)c2ccccc2)cc1 (stereo unspecified) | 0%[56.1 µM] | ·
CCN(CC)S(=O)(=O)c1cccc(-c2nn(-c3ccccc3)cc2/C=C(\C#N)C(=O)NCc2ccco2)c1 | 4% | 3%
CC(C)(C)OC(=O)C[C@H]1C/C=C\C[C@@H](CC(=O)N[C@@H](CO)Cc2ccccc2)C(=O)NC[C@H](c2ccccc2)OC1=O | 0% | ·
COc1cccc(NC(=O)CN(C)C(=O)CCCc2c[nH]c3ccccc23)c1 | 4% | ·
CCn1c(CCNC(=O)c2cccs2)nnc1SCC(=O)Nc1nc(-c2ccccc2)cs1 | 2% | 8%
O=C(CCCc1cccs1)Nc1ccc2c(c1)OCO2 | 6% | -14%
CCOc1cc(C2C(C(=O)OC)=CN(C3CCCC3)C=C2C(=O)OC)cc(Br)c1O | -1% | -2%
Cc1nc2ccccc2nc1OCC(=O)Nc1ccccc1 | -1% | -9%
CCOC(=O)C1CCN(C(=O)Cc2cccs2)CC1 | 4% | 2%
CCOc1cc(/C=C2/C(=O)N(c3ccccc3)N=C2C)ccc1OC(=O)c1cccs1 | 14% | -4%
Cc1csc(NC(=O)c2ccc3c(=O)n4c(nc3c2)CCCCC4)n1 | 3% | 1%
CC(=O)Nc1cccc(Oc2ccc(-c3noc(C)n3)cc2)c1 | 5% | -13%
O=C(NCc1ccco1)C1CCN(S(=O)(=O)c2cccc3cccnc23)CC1 | 2% | 10%
CC1(c2ccccc2)CC(C)(C)N2C(=O)Cc3cccc1c32 (stereo unspecified) | 3% | 1%
COc1ccc(C(=O)NCc2ccc3c(c2)OCO3)cc1S(=O)(=O)NCc1ccc(Cl)cc1 | 1% | -6%
Cc1ccc2c(c1)N(CC(=O)N1CCCc3ccccc31)C(=O)CO2 | -6% | 8%
N#Cc1c(N)sc2c1CCCCCC2 | 4% | -2%
CC(=O)N1c2ccc(S(=O)(=O)N3CCCCC3)cc2CC1C(=O)NCc1cccc(Cl)c1 (stereo unspecified) | 4% | -11%
COc1ccc(NC(=O)Nc2ccc(Cc3ccncc3)cc2)c(OC)c1 | 5% | -3%
COC(=O)c1ccc(COC(=O)Cc2n[nH]c(=O)c3ccccc23)cc1 | 6% | 6%
NC(=S)N/N=C/C=C/c1ccccc1 | 3% | 0%
O=C(Nc1ccccc1C(=O)N1CCCC1)c1ccccc1 | 5% | 5%
Cc1cc(C)n(C2CCCCC2OC(=O)c2ccccc2F)n1 (stereo unspecified) | 0% | ·
O=C(CSc1nc2c(oc3ccccc32)c(=O)n1CC1CCCO1)NCc1ccccc1 (stereo unspecified) | 3% | -4%
CCC(=O)Nc1ccc(NC(=O)CSc2nnnn2-c2ccc(OC)cc2)cc1 | · | -12%
Cc1nc(NCC2CCCO2)c2nnn(Cc3c(F)cccc3Cl)c2n1 (stereo unspecified) | 5% | 0%
CCc1ccc(C(=O)OCC(=O)c2c(N)n(CC(C)C)c(=O)n(C)c2=O)cc1 | 2% | 23%
O=C(COC(=O)CSc1ccc([N+](=O)[O-])cc1)NC1CCCCCCC1 | · | -9%

In a second layout: two of the compounds above.
Value order – TDP1 block	N370S GC
CC(=O)N1c2ccc(S(=O)(=O)N3CCCCC3)cc2CC1C(=O)NCc1cccc(Cl)c1 (stereo unspecified)
  4%	-11%
COc1ccc(NC(=O)Nc2ccc(Cc3ccncc3)cc2)c(OC)c1
  5%	-3%

Assay outcomes deposited in PubChem by National Center for Advancing Translational Sciences (NCATS).

A portion of the library, and most or all hits are left out here.
